PrP 5UTR inh: inhibition of PrP 5' UTR reporter expression | cell-based PrP 5' UTR mRNA reporter, plate reader | inhibition, % (no concentration beside the values) | actives 0.35% (n = 340,000);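 active = every replicate at 50% or more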;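 also: 0 = median of the neutral control wells; tested in H4 reporter cells; numbers are from one replicate; inactives centre near -14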
Mtb hypoxia inh: PubChem AID 1159583 | M. tuberculosis hypoxia-regulated fluorescent reporter, fluorescence | fluorescence inhibition, % (no concentration beside the values) | actives 0.1% (n = 300,000);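 active = 35 to 45% if threefold the growth effect, above 45% if 1.5-fold the growth effect; inactive = the rest, general growth blockers included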;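 also: wells of about 50 µL received 100 nL stock; 0% = vehicle wells and 100% = reference inhibitor wells; whole bacteria with a GFP reporter of the hypoxia response; strong numbers were not always called active; many hits fall short of the cut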
BJeLR lethal: MLPCN primary cell-based screen for lethality selective to Ras in HRASV12 cells; actives 0.17% (n = 300,000); inhibition, % (test concentration not listed); BJeLR (HRASV12) viability, CellTiter-Glo ATP luminescence, 48 h; reference of the scale not given here;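 active = replicate mean above 50%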;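 also: 50 nL library stock added to about 25 µL; numbers are from one replicate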
Bead autofluor: counter-screen for toxin protease inhibitors: compound fluorescence. fluorescence intensity (test concentration not listed). compound autofluorescence counterscreen, microsphere flow cytometry; stronger effect = higher value. actives 3.1% (n = 360,000). AID 624483;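 active = at least 3 SD above the mean of all compounds, about 16000 in these data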;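 also: 100 nL of 1 mM stock went into each well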
Sa ugtP lethal: growth inhibition of ugtP-null S. aureus, primary screen, RN4220 ugtP deletion, OD600 | 16 h; some inactives read as strong as hits | growth inhibition, % (concentration not given with the values) | actives 0.54% (n = 330,000) | AID 1259309, 2017;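 active = z-score under -3 and OD600 up to 0.15 on both plates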;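 also: plate controls were untreated wells for no effect and antibiotic for full effect; wells of about 80 µL received 100 nL stock; the first replicate is given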
Sa RN4220 lethal: growth inhibition of S. aureus RN4220, primary screen, OD600; 16 h; inhibition, % (concentration not given with the values); actives 0.33% (n = 330,000);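 active = z-score of -3 or lower and OD600 up to 0.18 on both plates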;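 also: plate controls were untreated cells for no effect and reference antibiotic for full effect; stock transfer was 100 nL into about 80 µL; one replicate is shown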
Mtb hypoxia inh growth: recorded beside Mtb hypoxia inh, whose call it bears; growth inhibition, %; measured here: M. tuberculosis growth (absorbance);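 0% = vehicle and 100% = reference antibiotic; read after six days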
Starred values were filed as active, the others as inactive; nt = not tested or not shown. Not a hit list; overall some 4.1% were active at least once.

1. O=C(NC(=S)NC1CCSC1=O)c1ccccc1Cl (stereo not given)
2. COc1ccc(CCNC(=O)N[C@@H](Cc2ccccc2)C(=O)O)cc1
3. O=C1CC(c2ccccc2)CC(=O)C1Sc1ccc(Cl)cc1 (stereo not given)
4. COc1ccc(CCC(=O)NCCCNC(=O)CCc2ccc(OC)cc2)cc1
5. CCn1c(SCc2ccc(C#N)cc2)nnc1-c1cccc(Cl)c1
6. Cc1ccc(S(=O)(=O)Oc2ccc(/C=C3\C(=N)N4N=C(S(C)(=O)=O)SC4=NC3=O)cc2)cc1
7. COC(=O)NN=Cc1ccc(-c2ccc(Cl)cc2Cl)o1
8. O=C(CC1CCCCC1)Nc1c2c(nn1-c1ccc(F)cc1)CS(=O)(=O)C2

Assay by compound,1,2,3,4,5,6,7,8
PrP 5UTR inh,-20,-10,-17,-6,-13,-14,nt,nt
Mtb hypoxia inh,15,10,1,9,4,4,1,0
Mtb hypoxia inh growth,9,-4,5,0,4,-2,6,3
BJeLR lethal,-9,8,-3,-9,-10,-4,nt,10
Bead autofluor,4026,3763,2192,2666,6646,5479,nt,9796
Sa ugtP lethal,3,0,56,11,5,-1,-9,-1
Sa RN4220 lethal,-0.1,1.3,25,-1.4,3.9,2.0,1.1,6.1

9. O=C(NCc1ccccc1)C1CCN(C(=O)NCc2ccccc2)CC1
10. O=C(COc1ccc([N+](=O)[O-])cc1)NNC(=S)NC(=O)c1ccc(Br)cc1
11. Cn1c(SCCC#N)nnc1-c1ccccc1F
12. C=CCn1c(SCc2n[nH]c(=S)n2-c2ccccc2)nnc1-c1ccccc1
13. CCc1ccc(C(=O)/C=C2\Sc3ccccc3NC2=O)cc1
14. Nc1nnc(SCC(=O)NNC(=O)c2ccc(Cl)cc2)s1
15. CN(C(=O)COn1nnc2ccc(Cl)cc21)C1CCS(=O)(=O)C1 (stereo not given)
16. NC(=S)Nc1nc2ccccc2[nH]c1=O

Assay by compound,9,10,11,12,13,14,15,16
PrP 5UTR inh,-7,-8,-9,-11,-30,-5,nt,nt
Mtb hypoxia inh,11,-2,-9,13,3,4,13,12
Mtb hypoxia inh growth,9,5,1,0,8,1,11,7
BJeLR lethal,-6,2,19,0,-3,nt,nt,9
Bead autofluor,15203,3177,4450,5765,10649,3007,nt,nt
Sa ugtP lethal,5,17,4,-2,-1,4,6,-5
Sa RN4220 lethal,0.8,38,0.9,2.1,9.8,0.1,3.4,8.8

17. COc1ccc(/C=N/NC(=O)c2[nH]c3ccc(Br)cc3c2-c2ccccc2)c(C(=O)O)c1OC
18. Cc1cc(C)c(C(=O)c2ccc(C(=O)NC(C)(C)C)cc2)c(C)c1
19. CCOC(=O)N1CCN(C(=O)CCN2C(=O)/C(=C\c3cccc(OC)c3)SC2=S)CC1
20. COc1cccc(CNC(=O)CCC2CCCN(C(=O)CCn3cncn3)C2)c1 (stereo not given)
21. O=C(NCC1CCCO1)C(c1ccc(F)cc1)N(Cc1ccc2c(c1)OCO2)C(=O)c1ccc(CN2CCOCC2)o1 (stereo not given)
22. CCN(CC)S(=O)(=O)c1cccc(S(=O)(=O)c2cccc(S(=O)(=O)N(CC)CC)c2)c1
23. CCCCC(=O)Nc1ncc([N+](=O)[O-])s1
24. COc1cc(OC)cc(C(=O)N[C@H](C(=O)NCc2ccccc2)C(C)C)c1

Assay by compound,17,18,19,20,21,22,23,24
PrP 5UTR inh,-23,-24,-13,-16,-12,-2,-23,-18
Mtb hypoxia inh,nt,5,4,3,-4,-7,16,-5
Mtb hypoxia inh growth,nt,3,3,8,2,-2,10,-4
BJeLR lethal,-4,-10,6,-40,9,8,nt,-4
Bead autofluor,5284,11865,3503,3147,2380,22967*,4340,3055
Sa ugtP lethal,nt,10,-7,3,3,10,33,1
Sa RN4220 lethal,nt,4.5,2.8,9.0,4.2,7.8,12,0.5

25. O=c1ccn(-c2cccc(C(F)(F)F)c2)nc1-c1ccn(-c2ccccc2)n1
26. CCN(CC)c1ccc(/C=N/NC(=O)OC(C)(C)C)cc1
27. CCC(=O)N1CCc2cc(S(=O)(=O)CCC(=O)NCCc3ccc(OC)c(OC)c3)ccc21
28. O=C(CC1CC=CCCC(Cc2ccc(F)cc2)C(=O)OCC(Cc2ccccc2)NC1=O)NCCO (stereo not given)
29. C=CCN1c2ccccc2[C@]23C[C@@H](C(=O)OC)N(C(=O)CC(C)C)C2=NC(C(=O)OC)=C(C(=O)OC)[C@H]13
30. O=C(COC(=O)c1cc(=O)[nH]c2ccccc12)Nc1cccc(S(=O)(=O)N2CCOCC2)c1
31. CCOC(=O)C(C)Sc1nc2c(cnn2-c2ccc(C)cc2)c(=O)[nH]1 (stereo not given)
32. CCN(CC)S(=O)(=O)c1ccc2c(c1)oc(=O)n2CC(=O)NC1CCCCC1

Assay by compound,25,26,27,28,29,30,31,32
PrP 5UTR inh,-8,-40,-6,nt,-22,-6,-21,-1
Mtb hypoxia inh,-4,nt,11,0,nt,-2,nt,-9
Mtb hypoxia inh growth,-3,nt,5,9,nt,0,nt,1
BJeLR lethal,-7,-5,-2,nt,9,-2,0,-1
Bead autofluor,2849,3629,nt,nt,3553,4139,4583,5201
Sa ugtP lethal,8,nt,-4,3,nt,3,5,4
Sa RN4220 lethal,32,nt,1.8,6.4,nt,0.0,13,1.0

33. COc1ccc(CC(=O)N2CCC(Nc3nc4ccccc4n3Cc3ccc(F)cc3)CC2)cc1
34. CC(=O)N1c2ccc(S(=O)(=O)N3CCC(C(=O)NCc4ccc(Cl)cc4)CC3)cc2CC1C (stereo not given)
35. CCC(CC)C(=O)N1N=C(c2ccc(NS(C)(=O)=O)cc2)CC1c1ccc(C)cc1 (stereo not given)
36. COc1ccc(OC)c(S(=O)(=O)N2CCN(C(=O)NC3CCCCC3)CC2)c1
37. Cn1ccc(C(=O)NN=Cc2c[nH]c3ccccc23)n1
38. O=C(c1ccc(Br)cc1)N1CCCC(c2nc(-c3cccs3)no2)C1 (stereo not given)
39. CCC(=NNC(=O)c1ccoc1C)c1ccc(C)o1
40. COc1ccc2c(c1)n([O-])c1c([n+]2=O)CCC1

Assay by compound,33,34,35,36,37,38,39,40
PrP 5UTR inh,-7,-7,-16,-28,nt,-52,nt,nt
Mtb hypoxia inh,3,-3,8,-1,-11,nt,3,14
Mtb hypoxia inh growth,9,2,0,1,1,nt,-1,5
BJeLR lethal,1,-1,-2,nt,nt,4,nt,4
Bead autofluor,4114,4169,5214,4506,nt,3850,nt,nt
Sa ugtP lethal,-9,2,-11,-6,2,nt,-8,4
Sa RN4220 lethal,-0.7,0.4,15,-5.1,-0.5,nt,4.8,1.6

41. O=C1OC(c2ccc(Cl)cc2)=C/C1=C/c1cccnc1
42. O=C(O)/C(=C/c1cccnc1)NC(=O)c1ccccc1
43. CC(C)c1ccc(NC(=O)c2cccc(NC3=NC4CS(=O)(=O)CC4S3)c2)cc1 (stereo not given)
44. COC(=O)[C@@]12CCCCN1C(c1ccc(-c3ccccc3)c(OC)c1)C1C(=O)N(C)C(=O)C12 (stereo not given in full)
45. CS(=O)(=O)N1CCN(C(=O)c2csc3ccccc23)CC1
46. C/C(N)=C(/C#N)C(=O)CSc1nc2scc(-c3ccccc3)c2c(=O)n1C
47. CCOC(=O)c1cc(-c2ccc(N3CCOCC3)cc2)nn1-c1ccccc1
48. CCN(c1ccc(C)cc1C)S(=O)(=O)c1nnc(NC(=O)c2ccco2)s1

Assay by compound,41,42,43,44,45,46,47,48
PrP 5UTR inh,-27,-16,-23,nt,2,-11,-35,0
Mtb hypoxia inh,8,-12,15,5,-5,5,3,0
Mtb hypoxia inh growth,9,-3,8,3,3,4,7,1
BJeLR lethal,4,-1,-2,nt,-10,8,5,9
Bead autofluor,3607,2033,5133,nt,24374*,3219,1920,4340
Sa ugtP lethal,19,1,3,10,1,19,9,2
Sa RN4220 lethal,0.5,0.1,-14,7.9,4.3,12,4.7,6.4

49. O=C(NN=Cc1ccc(Cl)cc1)C(=O)N1CCCCCC1
50. CCCS(=O)(=O)N1CCN(C(=O)c2cccc(OC)c2)CC1
51. CC12CCCc3c(O)cc(=O)n(c31)-c1ccccc12 (stereo not given)
52. Cc1ccc(NC(=O)CCN2CCc3ccccc3C2)cc1
53. O=C(NN=Cc1ccccn1)c1cc(-c2ccc3ccccc3c2)n[nH]1
54. CCN(CC)CCNC(=O)c1cccc(NC(=O)C(=O)c2cc(Br)ccc2NC(C)=O)c1
55. COc1ccc(CCn2c(N)c(C#N)c3nc4ccccc4nc32)cc1OC
56. C=CCc1c(C)nc(-c2ccccc2)nc1Nc1ccc(O)cc1

Assay by compound,49,50,51,52,53,54,55,56
PrP 5UTR inh,nt,-15,-37,-3,nt,7,-19,-4
Mtb hypoxia inh,21,8,3,3,8,0,nt,8
Mtb hypoxia inh growth,15,10,0,15,19,5,nt,10
BJeLR lethal,nt,-6,3,-1,nt,-2,-14,1
Bead autofluor,nt,3563,7729,11633,nt,4607,2461,6809
Sa ugtP lethal,5,0,1,-2,-18,2,14,1
Sa RN4220 lethal,7.3,2.1,2.9,2.5,7.3,9.5,4.0,-2.5

Some of the entries so far, with two lines to a compound:
Order of results: PrP 5UTR inh	Mtb hypoxia inh	Mtb hypoxia inh growth	BJeLR lethal	Bead autofluor	Sa ugtP lethal	Sa RN4220 lethal
#50 CCCS(=O)(=O)N1CCN(C(=O)c2cccc(OC)c2)CC1
→ -15	8	10	-6	3563	0	2.1
#51 CC12CCCc3c(O)cc(=O)n(c31)-c1ccccc12 (stereo not given)
→ -37	3	0	3	7729	1	2.9
#52 Cc1ccc(NC(=O)CCN2CCc3ccccc3C2)cc1
→ -3	3	15	-1	11633	-2	2.5
#53 O=C(NN=Cc1ccccn1)c1cc(-c2ccc3ccccc3c2)n[nH]1
→ nt	8	19	nt	nt	-18	7.3

Remaining list, next part
57. COc1ccc(NC(=O)C2CC(=O)N/C(=N/N=Cc3ccco3)S2)cc1 (stereo not given)
58. CN1CCN(S(=O)(=O)c2cccc(C(=O)Nc3sc4c(c3C(N)=O)CCCC4)c2)CC1
59. CCCn1nnc(NC(=O)COc2ccccc2Cl)n1
60. CC(OC(=O)c1ccc(F)cc1)C(=O)Nc1nc(-c2cccc([N+](=O)[O-])c2)cs1 (stereo not given)
61. CC(C)(C)c1ccc(-n2ncc3c2CCCC3NC(=O)CN2CCCC2=O)cc1 (stereo not given)
62. O=C1NC(c2ccc(Br)cc2)=N/C1=C/c1ccco1
63. COC(=O)Cn1c(-c2ccc(OC)cc2)c(-c2ccc(OC)cc2)nnc1=O
64. O=C(NCc1cccnc1)C(=O)NCC1OCCN1S(=O)(=O)c1cc(F)ccc1F (stereo not given)

Assay by compound,57,58,59,60,61,62,63,64
PrP 5UTR inh,nt,-5,-22,-18,-8,-84,-24,4
Mtb hypoxia inh,4,nt,12,-9,3,nt,8,-4
Mtb hypoxia inh growth,-5,nt,-2,5,6,nt,-1,4
BJeLR lethal,nt,7,-9,-6,7,-6,12,10
Bead autofluor,nt,3672,7892,6857,5171,2264,4203,3418
Sa ugtP lethal,13,-4,11,-6,2,nt,-2,0
Sa RN4220 lethal,-1.0,-2.5,6.1,14,1.3,nt,2.3,2.2
